# Screening results from PubChem.
# 2A Renilla = lowers the Renilla signal of an FMDV 2A StopGo reporter | 120,000 compounds, 0.32% hits | AID 1745857 | Potency, µM (highest dose often 57.5 µM), for the others: at the highest dose signal change, negative = less light | HEK cells with a luciferase reporter of 2A StopGo recoding; active means well fitted falling curve with a large enough effect; inconclusive means small, poorly fitted or top-dose-only effect; inactive means no such curve, though single readings can be large or run the other way; note: nearly all actives have a fitted effect of over 55% in size; overnight with compound
# StopGo FLuc = lowers the firefly signal of an FMDV 2A StopGo reporter; 120,000 compounds, 0.23% hits; Potency, µM (series often up to 57.5 µM), inactives show top-dose signal change, negative = less light; HEK cells with a luciferase reporter of 2A StopGo recoding; active = well fitted falling curve with a large enough effect; inconclusive = small, poorly fitted or top-dose-only effect; inactive = no such curve, though single readings can be large or run the other way; note: nearly all actives have a fitted effect of over 60% in size; overnight with compound
# Starred values were filed as active, the others as inactive; u = inconclusive; & = joins results of further samples; [ ] = another dose, or the depositor's remark. % is set by controls: 0 for no effect and ±100 for the full control effect; potency is the fitted concentration of half-maximal effect. This is a random part of the collection; about 0.53% have a hit in one of these screens.
SMILES | 2A Renilla | StopGo FLuc
CCN(CC)C(=O)c1ccc(Nc2nnc(-c3ccc(C)c(S(=O)(=O)NC)c3)c3ccccc23)cc1 | 362.4%[activator] | -5.3%
Cc1ccccc1Nc1c2c(nc3nncn13)CCC2 | -10.6% | -13.6%
COc1ccc(C)cc1S(=O)(=O)NCC(c1ccc(N(C)C)cc1)N1CCc2ccccc21 (stereo not given) | 195.7%[activator] | 2.1%
Cc1ccccc1Nc1c(-c2c[nH]c3ccccc23)nc2cccc(C)n12 | 21.9% | 131.6%[activator]
O=C1OC2C3CC(C2Sc2ccccc2)C(C(=O)O)C13 (stereo not given) | -1.3% | 11.7%
CCOc1ccc(NC(=O)c2cc(S(=O)(=O)N3CCOCC3)ccc2F)cc1 | 22.6% | -8.6%
Cn1c(=O)c2c(ncn2CCC(=O)Nc2cccc(F)c2)n(C)c1=O | 7.4% | 7.1%
Cc1cc(C)c2nc(N(Cc3cccnc3)C(=O)c3cccs3)sc2c1 | 0.6% | 1.0%
CC1(C(=O)Nc2cccc(C(F)(F)F)c2)Cc2ccccc2C(=O)O1 (stereo not given) | u | u
CC1(C)CC(=O)C2=C(C1)Nc1nonc1NC2c1ccc(Cl)cc1 (stereo not given) | -1.3% | -0.5%
Cc1ccc(/C=C/C(=O)Oc2ccc(-c3ccc(C#N)cc3)cc2)o1 | 4.1% | u
O=C(O)CCc1ccc(-c2ccccc2)n1-c1ccc(C(=O)O)cc1 | -12.2% | -2.9%
CN(CCC#N)C(=O)COC(=O)c1cccnc1Nc1ccccc1F | 5.9% | 0.0%
NNc1ccc(S(N)(=O)=O)cc1[N+](=O)[O-] | -6.6% | -2.7%
CCOC(=O)c1c(C)[nH]c(C(=O)COc2ncnc3sc4c(c23)CCC4)c1C | -7.3% | -6.9%
COC(=O)[C@]12C[C@H](CC(=O)NCC34CC5CC(CC(C5)C3)C4)C(=O)N(Cc3ccco3)C1=C[C@H](COCc1ccccc1)O[C@@H]2C | 0.0% | 0.0%
O=C(Nc1cc(Cl)cc(Cl)c1)C1CC(=O)N(C2CCCCC2)C1 (stereo not given) | 1.0% | -6.5%
COc1ccc2c(c1)CC/C(=C\c1ccccc1Br)C2=O | 84.3%&96.3%[activator] | 25.2%&149.0%
Cc1ccc(C(C)(C)C)c(OCC(=O)Nc2ccc(Cl)cc2C(=O)c2ccccc2)c1 | -8.0% | -13.7%
COC(=O)c1ccccc1NC(=O)CCc1c(C)nc2cc(-c3ccc(Cl)cc3)nn2c1C | 2.1% | u
CCOc1ccc(CCNC(=O)c2sc3nc4n(c(=O)c3c2C)CCCC4)cc1OCC | 11.1% | 0.0%
Cc1ccc2nc(/N=C(\N)NC(=O)c3ccccc3)nc(C)c2c1 | 6.2% | 60.9%[activator]
Cc1cc(Cl)c2cccc(C(F)(F)F)c2n1 | 2.9% | 153.9%[activator]
CC(NC(=O)c1ccc(-c2ccccc2)cc1)C1CC2CCC1C2 (stereo not given) | -0.6% | -0.6%
OC(COc1ccccc1)CN1CCN(c2nccs2)CC1 (stereo not given) | -13.8% | 8.7%
Cc1ccc(NC(=O)CCCc2cccs2)c(F)c1 | 23.8% | 58.0%[activator]
COc1cccc(C2(c3ccc(O)cc3)CCCC2)c1 | 18.0% | 0.0%
CCCN1C=NS(=O)(=O)c2cc(C(=O)NC(C)c3ccccc3)ccc21 (stereo not given) | 9.4% | 6.5%
CCOC(=O)C(Cc1c[nH]c2ccccc12)NC(=O)COc1ccc(Cl)c(C)c1 (stereo not given) | -9.0% | -17.2%
COc1ccccc1-c1cc(C(F)(F)F)nc(S(=O)(=O)CCCC(=O)Nc2ccccc2F)n1 | 14.1% | 20.4%
CCC(Oc1ccccc1)C(=O)Nc1ccc2oc(C)nc2c1 (stereo not given) | 3.7% | 15.4%
N#Cc1nc(COc2ccccc2F)oc1N1CCCCC1 | 5.5% | 199.1%[activator]
CCOC(=O)Cn1c(-c2cccs2)cc2cc(Cl)ccc21 | -5.6% | -12.1%
O=C(Nc1cc(-c2nc3ccccc3o2)ccc1Cl)c1cccc2c(Cl)cccc12 | -2.9% | 10.5%
Nc1nc(CSc2cccc[n+]2[O-])nc2ccccc12 | -0.6% | 22.6%
N#C/C(=C\c1ccnc2ccccc12)c1nc2ccccc2s1 | 2.5% | 31.4%[activator]
Cc1ccc(NC(=O)CSc2nnc(COc3ccc(Cl)cc3)o2)c(C)c1 | -20.9% | -27.8%
CNC(=O)c1ccc(I)cc1 | 0.0%[1.06 µM] | 4.1%
C=CCNc1nc(C(=O)OC(C)C(=O)Nc2ccc(F)cc2Cl)cs1 (stereo not given) | -9.0% | 13.9%
CCOc1ccc2nc(N3CCN(C(=O)CCS(=O)(=O)c4ccccc4)CC3)sc2c1 | u | u
CC(C)COc1ccc(C(=O)Nc2ccc3oc(=O)ccc3c2)cc1 | u | -5.9%
CCCCc1ccc(OC(=O)c2ccc(O)cc2)cc1 | -1.9% | 50.7%[activator]
COc1cccc(CN2C(=O)C3(SCC(=O)N3c3ccc(C)c(Cl)c3)c3ccccc32)c1 (stereo not given) | 11.6% | 47.7%[activator]
Cc1cccc(NC(=O)CN2C(=O)COc3ccc(S(=O)(=O)N4CCC(C)CC4)cc32)c1C | 1.9% | -2.8%
Cc1ccc(NC(=O)c2c(C(=O)Nc3ccccc3)sc3nc(C)cc(=O)n23)cc1 | 3.6% | 15.6%
COc1ccc(NC(=O)COCc2cc(-c3ccco3)on2)cc1Cl | 36.5% | 48.3%[activator]
CC(C)(C)OC(=O)N1CCC(c2nnc(SCc3ccccc3F)o2)CC1 | 8.3%&-0.6% | 15.2%&15.5%
CC(=O)Nc1cccc(NC(=O)CSc2nccn2Cc2ccccc2)c1 | 2.0% | -28.0%
COc1ccc(Cn2c(=O)c3cccnc3n(Cc3cccc(F)c3)c2=O)cc1 | 16.8% | -13.3%
Cc1nc2c(cnn2-c2ccccc2Cl)c(=O)n1-c1ccc(C(C)C)cc1 | -20.6% | -24.3%
Brc1ccc(-c2noc(-c3cc(-c4ccco4)n[nH]3)n2)cc1 | -0.2% | 110.2%[activator]
Cc1cc(C)c(NC(=O)CSc2ncc(S(=O)(=O)c3ccc(C(C)(C)C)cc3)c(=O)[nH]2)c(C)c1 | 3.4% | -9.9%
Brc1ccc(COc2ccc(-n3cnnn3)cc2)cc1 | 13.3% | 0.0%
COc1cc(C(=O)N2N=C(C)CC2(O)C(F)(F)F)ccc1OC(F)F (stereo not given) | -7.6% | -6.3%
CCc1nc(-c2cc(S(=O)(=O)N3CCN(c4ccccc4)CC3)ccc2OC)no1 | 2.0% | -2.5%
COc1cccc(CNC(=O)CN2C(=O)COc3ccc(S(=O)(=O)N4CCCCC4)cc32)c1 | 0.4% | 5.8%
C=C(Br)COc1ccccc1C(N)=O | 2.9% | 12.9%
Cc1c(C(=O)OCc2ccccc2C#N)oc2ccccc12 | -1.0%[1.06 µM] | 54.6%[activator]
CC(c1nc2ccccc2s1)N(C)C(=O)c1cccc(S(=O)(=O)Nc2ccccc2F)c1 (stereo not given) | 63.4%[activator] | 0.0%
CCCCCN1C(C(=O)c2ccccc2)=C(NC(=O)c2ccccc2Cl)c2ccccc2S1(=O)=O | -9.8% | -14.3%

# (next part)
SMILES | 2A Renilla | StopGo FLuc
CCNC(=O)CC1C(=O)N(c2cccc(OC)c2)C(=O)N1Cc1ccc(OC)c(OC)c1 (stereo not given) | -10.1% | -7.2%
CC(C)Cc1nnc(C(=O)Nc2ccc(C(=O)NCCN3CCCCC3C)cc2)s1 (stereo not given) | -13.8% | -5.5%
COc1ccc(-c2nc(SCC(=O)Nc3ccc4c(c3)OCCO4)c(-c3ccc(F)cc3)[nH]2)cc1 | 41.3%[activator] | 0.6%
COc1cc2c(cc1C(C)=O)C1CCC3(C)C(OC(C)=O)CCC3C1CC2 (stereo not given) | -11.4% | 9.1%
Nc1nccnc1C(=O)NCc1ccnc(Oc2ccc(F)cc2)c1 | 12.6µM* | u
NC(=O)c1ccc(COC(=O)c2ccc(Cl)cc2)cc1 | 1.4% | 8.3%
COC(=O)c1sc2cccc(F)c2c1S(=O)(=O)N1CCN(c2cccc(OC)c2)CC1 | 45.5%[activator] | 8.6%
O=C(CSc1nnc(Nc2ccccc2)s1)c1ccc(Br)s1 | 133.7%[activator] | 88.3%[activator]
O=C(O)C1CCCN1/C=C/C(=O)C(F)(F)F (stereo not given) | 5.7% | 2.5%
CCOC(=O)c1cc(NC(=O)c2cccc(-c3cc4ccccc4oc3=O)c2)ccc1N1CCOCC1 | 6.1% | 14.5%
CCN(CC)CCCNc1oc(-c2cccc(C)c2)nc1C#N | 6.0% | 23.2%
CC(=O)c1ccccc1NC(=O)c1ccccc1-c1ccccc1 | 46.8%[activator] | 28.6%
CC(c1ccccc1)N(C)C(=O)COC(=O)c1c[nH]c2ccccc12 (stereo not given) | 15.9% | 34.3%[activator]
Cc1ccc(Cl)cc1NC(=O)CSc1ncnc2ccccc12 | -15.6% | -9.5%
CC(=O)c1cccc(S(=O)(=O)NCc2c(C)nn(Cc3ccccc3)c2C)c1 | 29.9% | 6.4%
O=C(CN1CCN(Cc2nc3ccsc3c(=O)[nH]2)CC1)NC1CC1 | -5.1% | -9.5%
Cc1cc(C(=O)CSc2nnc(COc3ccccc3Cl)n2C)c(C)n1CC(F)(F)F | 18.5% | -3.9%
COCCn1c(-c2cccc(OC)c2)cnc1NC(=O)NCCc1ccccc1 | 0.0% | 65.0%[activator]
Nc1ccc(/C=C/c2ccccc2)cc1 | 2.8% | 66.9%[activator]
CSc1ccc(C2c3c(-c4ccccc4O)n[nH]c3C(=O)N2Cc2ccncc2)cc1 (stereo not given) | 203.9%[activator] | 0.7%
Fc1cccc(Cl)c1CSc1nc2ncccc2o1 | 1.0% | 191.1%[activator]
CCOc1cc(C(=O)Nc2c(NC3CCCCC3)c3ccccc3oc2=O)cc(OCC)c1OCC | -5.2% | 3.6%
COC(=O)c1cccc(COC(=O)C2Cc3ccccc3C(=O)O2)c1 (stereo not given) | 1.1% | 0.0%
COc1cccc(NC(=O)Cn2nc(N3CCN(c4cccc(Cl)c4)CC3)ccc2=O)c1 | -16.5% | 8.1%
O=S(=O)(Cc1ccccc1Cl)N1CCc2ccccc21 | 0.0% | 6.9%
CCN(C(=O)c1csc(-c2ccco2)n1)C1CC1 | 7.1% | 9.8%
CCN1CCN(C(C(=O)O)c2c[nH]c3cc(NC(=O)CCC(=O)O)ccc23)CC1 (stereo not given) | -9.6% | -6.6%
Cc1ccc2oc(C(=O)Nc3sc4c(c3C(=O)NCc3cccnc3)CCCC4)cc(=O)c2c1 | 8.1% | -4.1%
CCOc1ccc(NS(=O)(=O)c2ccc3[nH]cc(C(=O)NCC4CCCO4)c(=O)c3c2)cc1 (stereo not given) | 15.1% | -11.8%
Cc1c(CCC(=O)NCCc2ccccc2)c(=O)oc2c(C)c(O)ccc12 | 0.5% | -9.7%
COc1ccc(C2=CC(c3c(F)cccc3Cl)n3nnnc3N2)cc1 (stereo not given) | 44.2%[activator] | 114.2%[activator]
Cc1cc(C)c2[nH]c(C)c(CCN)c2c1 | -12.8% | -6.7%
COc1cccc(CNC(=O)Cn2c(=O)oc3cc(S(=O)(=O)N4CCCC4)ccc32)c1 | 6.6% | 19.7%
O=C(CSc1nncn2c1cc1occc12)Nc1ccccc1C(F)(F)F | -3.2% | -0.9%
COc1cc(C2CC(=O)Nc3c(-c4ccccc4)nsc32)c(OC)c2c1OCO2 (stereo not given) | -1.1% | -13.8%
Cc1cc(=O)n2[nH]c(NCc3ccccc3F)nc2n1 | -7.0% | 4.0%
CC(=O)c1cc(Cl)cc(Cl)c1OCc1ccccc1 | -1.8% | 15.6%
O=C(CCCc1ccccc1)Nc1cc(C(F)(F)F)ccc1Cl | 17.1% | 0.0%
CC(C)C(=O)Nc1ccc2nc(SCC(=O)N3CCCC3)sc2c1 | 0.0% | 0.0%
Fc1ccccc1-c1ccc(-c2nn3c(-c4ccco4)nnc3s2)o1 | 0.7% | 42.3%[activator]

# Copied from the list.
# CCc1nc(-c2cc(S(=O)(=O)N3CCN(c4ccccc4)CC3)ccc2OC)no1 | 2A Renilla = 2.0%
# CCNC(=O)CC1C(=O)N(c2cccc(OC)c2)C(=O)N1Cc1ccc(OC)c(OC)c1 (stereo not given) | StopGo FLuc = -7.2%

# Other compounds
SMILES | 2A Renilla | StopGo FLuc
CCOc1ccc2ncc3c(-c4ccc(C)cc4)nn(-c4cccc(F)c4)c3c2c1 | -3.8% | -8.2%
Cn1cc(S(=O)(=O)c2ccccc2)c(=O)c2cc(F)c(N3CCN(c4ccc(F)cc4)CC3)cc21 | -0.7% | 18.3%
COc1ccccc1NC(=O)N1CCN(Cc2nc3ccc(C)cc3o2)CC1 | -18.7% | -19.5%
Cc1ccc(C(=O)NCC(c2cccnc2)N2CCc3ccccc32)cc1C (stereo not given) | u | u
CC(C)C(=O)Nc1ccc(NC(=O)CCCC(=O)O)cc1 | -3.2% | 1.2%
CCCC1CCC(NC(C)C)CC1 (stereo not given) | -8.8%[1.06 µM] | 24.1%
CSc1nc(=O)c2c(n1C)NC(=O)CC2c1ccc2c(c1)OCO2 (stereo not given) | -11.2% | -8.9%
COc1ccc2c(c1)c(C(=O)OCCN(C)C)c(C)n2C | -16.5% | -9.4%
Cc1ccc(-c2nc(CC(=O)NCc3ccc(Cl)cc3)cs2)o1 | 7.4% | 11.0%
CC(CCc1ccccc1)NC(=O)C1(C#N)CCCC1 (stereo not given) | 7.7% | 24.9%
O=C(CCCC(=O)OCC(=O)c1ccc([N+](=O)[O-])cc1)Nc1cc(C(F)(F)F)ccc1Cl | 13.8% | 17.6%
Cc1ccc(-c2nsc(NC(=O)c3oc4ccc(F)cc4c3C)n2)s1 | -13.3% | 15.0%
